AID923 – qHTS Assay for Allosteric/Competitive Inhibitors of Caspase-1: Spectroscopic Profiling in AFC Spectral Region; hit rate 1.1% among 75,000; Potency, µM (doses to about 57.5 µM), for the others: at the top dose fluorescence increase, most hits filed as activators; compound fluorescence, AFC spectral region (405/520 nm); almost no hit is shown here; active = well fitted activation curve with a large enough effect; inconclusive = small, poorly fitted or top-dose-only effect;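 also: potency is read from the fitted curve at half-maximal effect; 0% is about no effect; scaled to a free AFC standard on each plate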
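Compound autofluorescence profiled at 405 nm ex/520 nm em during kinetic caspase 1 run (50 nM enzyme, 5 uM Ac-WEHD-AFC, HEPES pH 7.5, 10 mM DTT). Titration up to 57 uM; baseline from regression intercept, normalized to AFC standard curve.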
TSHR ag – TSH receptor (human) agonism; hit rate 0.48% among 73,000; HEK293-CNG-TSHR cells (CNG channel as cAMP sensor), membrane potential dye, cAMP; Potency, µM (highest dose often 57.1 µM), without a hit: at the highest dose activation, usual class: activators; active = well fitted activation curve of enough size with the parental cells flat; inconclusive = any curve in the parental cells; inactive = parental cells flat and receptor cells flat or falling; also: potency is read from the fitted curve at half-maximal effect; % of control where 0% means no effect; weak receptor curves with flat parental cells got no call and are not listed
Target sequence (P16473 whole entry, looked up): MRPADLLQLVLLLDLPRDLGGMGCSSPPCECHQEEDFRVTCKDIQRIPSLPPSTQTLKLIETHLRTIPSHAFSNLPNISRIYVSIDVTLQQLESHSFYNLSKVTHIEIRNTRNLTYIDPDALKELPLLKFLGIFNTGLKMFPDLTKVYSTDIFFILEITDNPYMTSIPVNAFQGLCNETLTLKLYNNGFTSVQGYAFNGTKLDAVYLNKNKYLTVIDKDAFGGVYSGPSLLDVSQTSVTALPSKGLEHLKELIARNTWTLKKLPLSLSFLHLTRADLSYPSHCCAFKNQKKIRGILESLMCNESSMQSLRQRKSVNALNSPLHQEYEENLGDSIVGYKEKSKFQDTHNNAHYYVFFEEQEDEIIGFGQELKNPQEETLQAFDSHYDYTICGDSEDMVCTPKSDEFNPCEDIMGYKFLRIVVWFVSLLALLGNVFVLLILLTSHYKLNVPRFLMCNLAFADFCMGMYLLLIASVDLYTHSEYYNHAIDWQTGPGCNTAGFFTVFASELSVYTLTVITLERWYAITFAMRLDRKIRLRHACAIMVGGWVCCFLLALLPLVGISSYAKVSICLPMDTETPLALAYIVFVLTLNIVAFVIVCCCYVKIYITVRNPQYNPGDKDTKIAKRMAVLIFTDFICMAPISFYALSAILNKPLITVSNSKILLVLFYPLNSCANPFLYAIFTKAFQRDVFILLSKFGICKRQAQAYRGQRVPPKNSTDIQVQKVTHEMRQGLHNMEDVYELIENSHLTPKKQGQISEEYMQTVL
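cAMP rise detected as CNG-channel membrane depolarization by fluorescent dye (emission 590 nm), 30 min after compound, following 60 min dye loading containing 100 uM RO 20-1724 at room temperature. Cells: TSHR/CNG HEK 293, with parental CNG HEK 293 as control.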
A488 autofl – compound autofluorescence in A488 spectral region. hit rate 0.1% among 59,000. compound autofluorescence, A488 spectral region, dye equivalency; hits give high values. max dye equivalency, M; active = above 10 nM dye equivalent; inconclusive = 1 to 10 nM; inactive = 1 nM or less; about half of its hits are not listed in these tables;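 also: highest value over a series up to 38 µM; compound alone in buffer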
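Read-out: relative fluorescence at 480/540 nm, expressed as Alexa 488 dye-equivalent concentration from a six-point A488 standard included per plate. Conditions: 100 mM Tris, pH 8.0; 15 min incubation, room temperature.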
A647 fluor – compound autofluorescence in A647 spectral region; Compound fluorescence, A647 channel (570/671 nm), Tris buffer; max dye-equivalent concentration, M; 59,000 tested, under 10 active; AID 592; active means above 1 µM dye equivalent; inconclusive means 0.1 to 1 µM; inactive means 0.1 µM or less;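 also: values scaled relative to a standard on each plate; highest value over a series up to 38 µM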
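Compounds pinned into 100 mM Tris pH 8.0, 15 min at room temperature, then read with 570 nm excitation/671 nm emission filters. Fluorescence normalized to an on-plate six-point Alexa 647 standard curve, giving dye-equivalent concentration per compound concentration.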
Resorufin autofl – compound fluoresces in the resorufin spectral region; AID 588; hit rate 0.04% among 59,000; Compound fluorescence, resorufin region 547/598 nm, buffer; hits give high values; max dye-equivalent concentration, M; active = above 10 nM dye equivalent; inconclusive = 1 to 10 nM; inactive = 1 nM or less; a few of its hits are not listed in these tables; also: highest value over a series up to 38 µM
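Read-out: intrinsic compound fluorescence at ex 547/em 598 nm after 15 min at RT in pH 8.0 Tris (100 mM). Values expressed as resorufin-equivalent concentration from per-plate standard series.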
The depositor's hits bear a star; i = inactive; ? = inconclusive; . = no result given; & = joins results of further samples; [ ] = another dose, or the depositor's remark. Some of the compounds tested (hit frequency here may not be typical).

molecule,AID923,TSHR ag,A488 autofl,A647 fluor,Resorufin autofl
Cc1ccc(C2=C(Cl)C(=O)C(c3ccc(C)cc3)=C(Cl)C2=O)cc1,-3.2%[11.5 µM],2%[11.4 µM],i,6.2e-09,i
Cc1ccc(NC(=O)c2ccc(NS(=O)(=O)c3c(C)noc3C)cc2)cc1C,-0.3%,1%,i,1e-09,i
C[C@@H]1c2ccccc2Cn2cc3c(c21)C(=O)c1cccc(OP(=O)(O)OCc2ccccc2)c1C3=O,8.2%[11.5 µM],-4%[11.4 µM],?,8.7e-09,i
COCC(N)(c1ccccc1)c1nc2ccccc2n1C (stereo not drawn),-1.0%,11%,i,3.2e-08,i
CCC1(C)NC(=O)N(CC(=O)Nc2sc3c(c2C(N)=O)CCC3)C1=O (stereo not drawn),0.2%,1%,i,3.3e-08,i
O=C(/C=C/Nc1cccc(O)c1)c1ccccc1,7.6%,-6%,.,.,.
COCCn1c(SCC(=O)Nc2ccc3c(c2)OCCO3)nnc1-c1c[nH]c2ccccc12,0.6%,-18%,i,5.9e-09,i
O=C(CCCCn1c(=S)[nH]c2ccsc2c1=O)NCc1ccco1,-0.4%,-13%,i,3e-08,i
COc1ccccc1N1CCN(c2nc3ccccc3nc2C(C#N)C(=O)OC(C)C)CC1 (stereo not drawn),5.6%,?,i,1e-09,i
O=C(CN(Cc1ccccc1C(F)(F)F)C(=O)CNC(=O)c1ccco1)NC1CCCC1,-0.8%,4%,i,1.2e-08,i
Cc1ccc(C)c(N(C)C(=O)COc2cc(=O)n(C)c3ccccc23)c1,-0.7%,8%,.,.,.
Cc1c(NC(=O)CSc2nnc(-c3ccco3)n2-c2ccccc2)c(=O)n(-c2ccccc2)n1C,0.7%,?,.,.,.
CCc1ccc(Cn2nnc(C(=O)Nc3ccc(OC)cc3OC)c2N)cc1,0.2%,7%,.,.,.
CC(=O)NC(C)C12CC3CC(CC(C(=O)O)(C3)C1)C2 (stereo not drawn),-2.6%,0%,i,1.8e-08,i
O=C1CC(N2CCN(c3ccc(C(=O)c4ccc(F)cc4)cc3)CC2)C(=O)N1 (stereo not drawn),4.4%,-1%,i,1e-09,i
COc1ccc(C2C3=C(N=C4SCC(=O)N42)c2ccccc2CC3)cc1 (stereo not drawn),1.5%,?,i,1e-09,i
CC(=O)N1CCN(Cc2ccc(Br)s2)CC1,1.1%,3%,.,.,.
Cc1ccc2nc3sc(C(=O)N4CCOCC4)c(N)c3cc2c1,0.6%,-3%,?,1.1e-09,i
O=C(Nc1nncs1)c1ccccc1Br,0.0%,?,.,.,.
CCOC(=O)c1c(C)nc2cc(C)ccn12,-2.2%,?,i,1e-09,i
CCC(=O)N(Cc1cc2cc(C)c(C)cc2[nH]c1=O)C1CCCCC1,-2.2%,21%,i,2.1e-09,i
COCCOC(=O)c1ccccc1C(=O)OCCOC,-0.9%,?,.,.,.
CCOc1ccccc1-n1nnnc1SCC(=O)NC(=O)NCc1ccco1,0.4%,8%,i,1.3e-08,i
CCN1CCN(c2nc3c(c(=O)n(C)c(=O)n3C)n2Cc2cccc3ccccc23)CC1,0.7%,-10%,i,1e-09,i
COc1cccc(C2N(c3cccc(Cl)c3)C(=O)C3CCCN32)c1OC (stereo not drawn),1.9%,?,.,.,.
Cc1ccc(C)c(N2CCN(c3cc(C)nc4nnnn34)CC2)c1,0.6%,?,i,4.3e-08,i
CCOC(=O)c1sc(C)nc1C1CCN(C(=O)OCC)CC1,0.4%,.,i,1e-09,i
O=C(OCc1nnc(-c2ccccc2)o1)c1ccc2c(c1)C(=O)N(CCc1ccccc1)C2=O,-0.1%,.,i,4.9e-08,i
CCCS(=O)(=O)N1CCC(C(=O)NCCCOC)CC1,-0.2%,-3%,i,1e-09,i
O=C(O)c1nn(-c2ccccc2-c2n[nH]c(=O)[nH]c2=O)c(=O)[nH]c1=O,4.6%[11.5 µM],3%[11.4 µM],i,2.2e-08,i
Cc1cc(C)n(C(=O)C2CCCN2S(=O)(=O)c2ccc(Cl)cc2)n1 (stereo not drawn),1.6%,?,i,1e-09,i
CCCCOCCCNC(=O)Cc1ccccc1OC,-0.1%,9%[11.4 µM],.,.,.
COC(=O)c1ccc(C(NC(=O)OCc2ccccc2)/C(=C/[C@@H](C)C(=O)NCc2cc(C)n(C)n2)c2cccnc2)cc1 (stereo partly drawn),-0.3%,-1%,.,.,.
Cc1ccc(CCN2C(=O)CCC2(C)C(=O)NC2CCCC2)cc1 (stereo not drawn),-1.0%,7%,.,.,.
Cc1c(Cl)cccc1NC(=O)CCCCCN1C(=O)CCC1=O,0.6%,.,i,1e-09,i
CCN(CC)c1ccc(NS(=O)(=O)c2ccc3c(c2)oc(=O)n3C)c(C)c1,1.5%,-11%,.,.,.
Cc1ccccc1C(=O)NC1CCN(CC(=O)Nc2nccs2)CC1,0.0%,-1%,i,4.3e-08,i
COc1cc(-n2nnnc2SCC(=O)N2CCN(c3ccc(F)cc3)CC2)c(OC)cc1Cl,2.9%,11%,i,2.8e-08,i
COC(=O)c1ccc(C2NC(=O)NC(C)=C2C(=O)N(C)C)cc1 (stereo not drawn),-1.3%,?,i,3.7e-09,i
O=C(CSCC(=O)OCn1nnc2ccccc2c1=O)Nc1ccc(Cl)cc1,-3.5%,-11%,i,1e-09,i
COc1ccccc1N1CCN(C(=O)c2ccc(Br)s2)CC1,-0.2%,-2%,i,3.6e-09,i
Cc1cc(N)c2ccccc2[n+]1CCCCCCCCCC[n+]1c(C)cc(N)c2ccccc21,0.2%,-18%&-9%,i,3.2e-08&1.3e-08,i
CC(C)NC(=O)c1n[nH]c(=O)c2ccccc12,-0.4%,3%,i,5.2e-09,i
O=C(CSc1nc2c(cnn2-c2ccccc2)c(=O)[nH]1)N1CCOCC1,-0.1%,9%,i,1.5e-08,i
COC(=O)c1cc(C(=O)OC)cc(N2C(=O)CC(Sc3nc(C)cc(C)n3)C2=O)c1 (stereo not drawn),-0.9%,25µM*,i,2.8e-08,i
O=C1C=CC(=O)C2=C1C1c3ccccc3C2c2ccccc21,-2.5%,-5%,.,.,.
Nc1nc(CN2CCN(c3ccc(F)cc3)CC2)nc(N2CCCc3ccccc32)n1,1.1%,.,i,1e-09,i
O=S(=O)(C/C(=C/CO)S(=O)(=O)c1ccccc1)c1ccccc1,0.3%,0%[11.4 µM],i,1.7e-08,i
CC1CCN(C(=O)CN(CCc2ccccc2)S(C)(=O)=O)CC1,0.5%,10%,i,2.5e-08,i
Cc1cnc(C(=O)OCC(=O)Nc2cccc(Cl)c2)cn1,0.8%,-2%,i,3.4e-09,i
CC(=O)Oc1cccc(/C=c2\sc3nc(-c4ccco4)nn3c2=O)c1,0.7%,3%[11.4 µM],i,1.4e-08,i
COC(=O)c1ccc(C(C(=O)NCc2ccccc2)N(Cc2ccco2)C(=O)c2cnccn2)cc1 (stereo not drawn),-0.7%,.,i,1e-09,i
COc1cccc(N2CCN(C(=O)c3ccc4nc(N5CCCCC5)sc4c3)CC2)c1,2.5%,25%,.,.,.
CC1(C)CC(=O)c2cnc(NC(=O)CCc3ccccc3)nc2C1,-1.2%,-11%,.,.,.
CCOC(=O)c1ccc(NC(=O)c2nn(CC)cc2Br)cc1,0.4%,7%,i,1e-09,i
COc1ccc(C(CCc2ccc(C)o2)NC(=O)Nc2ccc(OC)cc2OC)cc1 (stereo not drawn),-0.7%,.,i,2e-08,i
CC(C)(C)C(=O)[C@H]([C@@H](c1ccccc1)N1CCOCC1)N1CCOCC1,3.0%[11.5 µM],11%[11.4 µM],i,4.1e-08,i
CC(=O)c1c(C)[nH]c(C(=O)NCCc2ccccc2)c1C,0.4%,-2%,i,5.9e-09,i
CCOC(=O)C1=C(C)N=C(/N=C/N(C)C)SC1c1ccccc1 (stereo not drawn),-0.5%,13%,i,4.5e-08,i
COc1ccc(CNC2=CC(=O)CC(C)(C)C2)cc1,0.8%,-1%,.,.,.

Continued.
molecule,AID923,TSHR ag,A488 autofl,A647 fluor,Resorufin autofl
COc1ccc(Nc2cc(C)nc3nc(C)nn23)c(OC)c1,4.4%,6%,.,.,.
O=C1c2oc3ccc(Br)cc3c(=O)c2C(c2cccnc2)N1Cc1ccco1 (stereo not drawn),0.7%,.,i,1.1e-08,i
COC(=O)c1cccc(N2C(=O)C(Cl)=C(N3CCOCC3)C2=O)c1,0.2%,5%,i,1.7e-09,i
CCn1c(SCC(N)=O)nnc1-c1ccco1,-1.2%,-1%,i,5.7e-08,i
Cc1cc(C(=O)Nn2cnnc2)cs1,-0.6%,-10%,i,5.2e-09,i
c1ccc(-n2c(SCc3nc(-c4cccs4)no3)nnc2-c2ccco2)cc1,-0.2%,?,i,1e-09,i
CCCc1nc(SCc2cccnc2)c2c(=O)n(C)c(=O)n(C)c2n1,-0.4%,23%,.,.,.
COc1ccc2nc(NC(=O)CSc3nnnn3C3CCCCC3)sc2c1,3.0%,27%,i,1e-09,i
Cc1ccccc1N(CC(=O)NCCSCc1ccco1)S(C)(=O)=O,-0.2%,1%[11.4 µM],.,.,.
COc1ccc(-c2nnc(SC(C)C#N)o2)cc1 (stereo not drawn),3.1%,1%,i,1.1e-09,i
CNc1nnc(-c2cccc(N(C)C)c2)s1,6.8%,-4%,i,1e-09,i
COc1cccc(/C=N/n2cnnc2)c1OCc1ccccc1,0.9%,22%,.,.,.
Nc1nc(-c2c[nH]c3ccccc23)cs1,2.4%,0%[11.4 µM],i,2.3e-08,i
C[C@@H]1O[C@H]2C3=C(C(=O)[C@H]4O[C@@H]4[C@H]3O)[C@@H]1[C@@H]1[C@@H](C)OC=C3[C@H](O)[C@H]4O[C@@H]4/C(=N\OCc4ccccc4)[C@]312,-1.7%[11.5 µM],20%[11.4 µM],.,.,.
CCC(=O)N1CCN(CCN=Cc2c(O)n(C3CCCCC3)c(=O)n(C3CCCCC3)c2=O)CC1,5.1%,-12%,.,.,.
CCOC(=O)Cc1nn2c(=O)cc(C)nc2s1,3.5%,1%[11.4 µM],i,1e-08,i
COc1ccccc1C1/C(=C(/O)c2ccc(C)cc2)C(=O)C(=O)N1CCN1CCOCC1 (stereo not drawn),.,.,i,2e-08,i
O=C(Cn1nnc2ccccc2c1=O)NCc1ccco1,0.0%,-3%,i,1e-09,i
O=C1CC(c2ccc(F)cc2)Cc2nc(NCc3ccco3)ncc21 (stereo not drawn),-2.4%,.,i,7.6e-09,i
COc1cc(NC(=O)c2ccco2)c(OC)cc1NC(=O)CSc1ncc(-c2ccc(F)cc2)[nH]1,7.3%,?,i,1.6e-09,i

Source: PubChem
